Source: PubChem BioAssay (National Center for Advancing Translational Sciences (NCATS))
gsp antagonist: antagonists of gsp mutant (McCune-Albright syndrome) | gsp-mutant cells, cAMP HTRF, 30 min; control for the full effect not named in the record | Potency, µM (top dose mostly 76.9 µM), inactives show at the highest dose activity change, negative = inhibition, usual class: inhibitors | 340,000 tested, 0.4% active | AID 624288; active = falling curve of any shape with a large fitted effect; inconclusive = falling curve, mostly with a smaller effect; inactive = flat or rising curve; cell line not stated here;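 further: intracellular cAMP measured with PDE inhibitor Ro 20-1724 present during compound exposure; potency means the concentration at half of the fitted maximal effect; on the % scale 0 is the no-effect control and ±100 the full control effect; nearly all actives have a fitted effect of over 65% in size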
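Measurement of cellular cAMP by homogeneous time-resolved fluorescence following a 30 min compound exposure at 37C. The PDE inhibitor […] was present throughout; the assay buffer was DPBS with 0.05% BSA and 0.005% Tween 20.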
D2 ag: agonists of human D2 dopamine receptor (beta-arrestin) | DiscoveRx PathHunter D2 beta-arrestin, luminescence, 90 min; 100% = 57 uM dopamine signal | activation, % (concentration not given with the values) | 360,000 tested, 0.084% active | AID 624465; in the data active = activation above about 40%; inconclusive = about 15% to 40%; inactive = below about 15%; further: compound concentration not given in the record; the text of the record calls up to 30% inactive
Target sequence (P14416 whole entry, looked up): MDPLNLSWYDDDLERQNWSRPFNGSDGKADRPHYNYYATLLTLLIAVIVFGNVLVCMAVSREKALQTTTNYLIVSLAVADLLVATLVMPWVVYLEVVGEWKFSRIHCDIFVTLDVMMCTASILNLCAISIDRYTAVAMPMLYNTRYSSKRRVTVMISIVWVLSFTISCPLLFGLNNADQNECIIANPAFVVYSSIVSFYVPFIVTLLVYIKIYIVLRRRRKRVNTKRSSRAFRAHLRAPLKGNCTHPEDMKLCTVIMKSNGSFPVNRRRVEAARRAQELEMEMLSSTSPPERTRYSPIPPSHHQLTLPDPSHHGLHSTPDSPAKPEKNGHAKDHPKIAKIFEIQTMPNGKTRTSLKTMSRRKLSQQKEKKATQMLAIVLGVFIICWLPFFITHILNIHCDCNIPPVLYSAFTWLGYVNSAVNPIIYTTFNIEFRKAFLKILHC
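DiscoveRx PathHunter D2 beta-arrestin cells (2,100/well) attached overnight, then compound-stimulated 90 min at 37 C in HBSS/10 mM HEPES/0.1% Tween-20 buffer; beta-galactosidase complementation read by luminescence after 1 h at ambient temperature. Dopamine 57 uM final (EC100) as control.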
Six1-Eya2 inh: inhibitors of human Six1/Eya2 interaction. activity change, % (test concentration not listed). AlphaScreen GST-Six1/His-Eya2 binding, biochemical; stronger effect = lower value; control for the full effect not named in the record. 360,000 tested, 0.56% active. AID 651725. Q15475+O00167; in the data active = activity change below about -65%; inconclusive = about -30% to -65%; inactive = above about -30%; further: on the % scale 0 is the no-effect control and ±100 the full control effect; compound concentration not given in the record
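Homogeneous AlphaScreen proximity assay pairing GST-Six1 with His-tagged Eya2 (added as 5X mix: 250 nM and 500 nM) in 50 mM Tris pH 8.0, 300 mM NaCl, 1 mM TCEP. Glutathione donor and nickel acceptor beads; 1 h, 37 °C, dark.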
D2 potentiator: potentiates the human D2 dopamine receptor allosterically; P14416; DiscoveRx D2 beta-arrestin cells, luminescence, 90 min; 100% = 57 uM dopamine signal; AID 624464; 360,000 tested, 0.23% active; potentiation, % (no concentration beside the values); active = potentiation of 50% or more; inconclusive = 30% to 50%; inactive = 30% or less;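 further: compound concentration not given in the record; tested on top of an EC20 dose of dopamine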
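PathHunter beta-arrestin assay in DiscoveRx D2 cells. Compounds were added with an EC20 of dopamine (50 nM final) for 90 min at 37 deg C. Luminescence was read 1 h after detection reagent, with 57 uM dopamine as the EC100 control.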
gsp ag: agonists of gsp mutant (McCune-Albright syndrome) | gsp mutant cells, cAMP HTRF, 30 min; control for the full effect not named in the record | Potency, µM (titrated, usually from 76.9 µM), for inactives: at the highest dose activation (cAMP increase), most hits filed as activators | 340,000 tested, 0.13% active; active = well fitted activation curve with a large enough effect; inconclusive = small, poorly fitted or top-dose-only effect, or another doubt; inactive = no such curve, though single readings can be large or run the other way; cell line not stated here;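 further: phosphodiesterase inhibitor Ro 20-1724 added with compounds to block cAMP breakdown; potency means the concentration at half of the fitted maximal effect; nearly all actives have a fitted effect of over 60% in size; about a fifth of the inactives were tested at one dose only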
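Cells stably selected in G418 were plated at 2000/well, grown 16-24 hr, then given compounds in DMSO with the PDE inhibitor […] (300 uM solution added) for 30 min at 37C; cAMP was read by HTRF.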
CtBP-E1A blk: blocks the CtBP interaction with E1A; AlphaScreen GST-E1A/His-CtBP binding, 1536-well; stronger effect = lower value; control for the full effect not named in the record; activity change, % (test concentration not listed); 340,000 tested, 0.49% active; in the data active means activity change below about -65%; inconclusive means about -30% to -65%; inactive means above about -30%; further: on the % scale 0 is the no-effect control and ±100 the full control effect; compound concentration not given in the record
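GST-E1A and His-tagged CtBP (125 nM each as 5X stock) were preincubated with pin-transferred compound for 2 h at 37 °C in the dark, then glutathione donor and nickel acceptor beads were added for 1 h before AlphaScreen reading.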
Numbers without * were called inactive; ? = inconclusive; . = no result given; [ ] = dose if it differs, or a comment.

gsp antagonist | D2 ag | Six1-Eya2 inh | molecule | D2 potentiator | gsp ag | CtBP-E1A blk
12% | 0.7 | 10 | CCN1C(=O)CC(SC2CC(=O)N(CC)C2=O)C1=O (centres undefined) | -8 | ? | -1
-5% | -4.8 | 1 | CCCC(C(=O)Nc1ccc(S(=O)(=O)N2CCCC2)cc1)c1ccccc1 (centres undefined) | 1 | -40%[inhibitor] | -4
10% | -0.8 | 8 | C=CCNC(=O)c1ccccc1NC(=O)C1COc2ccccc2O1 (centres undefined) | -1 | -7% | 5
8% | 9.2 | -11 | CS(=O)(=O)c1cccc(C(=O)Nc2ccc(-c3nc4ccccc4[nH]3)cc2)c1 | 0 | -38% | -20
4% | -5.8 | 8 | CC(=O)c1c(C)n(-c2ccc(Br)cc2)c2ccc(O)cc12 | -1 | -1% | -3
6% | -2.7 | 6 | COc1cccc(C(=O)N2CCN(c3ncccn3)CC2)c1 | -6 | 7% | 8
-7% | -0.4 | 8 | COc1ccc2oc(C(=O)N3CCCc4ccccc43)c(C)c2c1 | -6 | 10% | 13
-2% | 4.5 | -4 | Cc1cccc(S(=O)(=O)Nc2nc3ccccc3nc2Nc2cccc(C(=O)O)c2)c1 | -6 | ? | .
12% | 1.8 | 1 | CC(C)S(=O)(=O)C/C(N)=N/OS(=O)(=O)c1ccc(Cl)cc1 | 5 | 13% | .
-2% | -0.9 | 0 | COc1ccc(C2CCCN2C(=S)Nc2cccc(C)c2C)cc1OC (centres undefined) | -3 | -3% | 6
8% | -4.8 | 0 | CC(C)(C)NC(=S)N1CCC(C(=O)c2ccc(F)cc2)CC1 | -3 | -1% | 6
-7% | 2.0 | 0 | Cc1ccc(NC(=O)CSc2nc3c(cc2C#N)C(=O)CCC3)cc1S(=O)(=O)N(C)C | -11 | 13% | -7
-17% | -3.9 | 15 | O=C(COc1ccccc1)N[C@@H]1c2ccccc2CC[C@H]1OCc1ccccc1 | . | . | 11
0% | -2.6 | -1 | O=S(=O)(Cc1ccccc1)N1CCN(Cc2ccccc2)CC1 | -9 | -28% | 3
0% | 2.4 | 6 | C/C(N)=C(/C#N)C(=O)CSc1nc2scc(-c3ccc(F)cc3)c2c(=O)n1C | -9 | -14% | -5
4% | -2.7 | 3 | CCCCCN(C(=O)COC(=O)CSc1ccc([N+](=O)[O-])cc1)c1c(N)n(CCCC)c(=O)[nH]c1=O | -46 | -29%[15.4 µM] | 0
10% | -7.4 | -8 | COc1ccc(N2C(=O)CC(Cc3ccccc3OC)C2=O)cc1 (centres undefined) | 10 | 9%[15.4 µM] | 7
-5% | 1.2 | 6 | CCCNc1nc2c(c(=O)n(C)c(=O)n2C)n1CCC(C)C | -10 | 15% | -11
0% | -0.1 | 5 | COC(=O)C1=C[C@@H](C(=O)OC)[C@@H]2C3=C(C(=O)[C@]2(C)NC(=O)c2ccccc2)[C@H](C)n2c(=O)n(-c4ccccc4)c(=O)n2[C@@H]3C1 | -8 | 21% | .
0% | -3.3 | 10 | O=C(CCc1n[nH]c(=O)[nH]c1=O)N1CCCCC1 | -7 | -6% | -2
-4% | -0.5 | -13 | Cc1onc(-c2c(F)cccc2Cl)c1C(=O)Nc1ccccc1N1CCOCC1 | -3 | -18%[15.4 µM] | -9
-10% | 2.7 | 8 | COc1cccc(C(=O)Nc2cccc3ccccc23)c1OC | 11 | 18% | 15
-9% | 0.1 | -6 | O=C(Cc1ccccc1)NNC(=O)Nc1ccc(Cl)c(Cl)c1 | -5 | 3%[15.4 µM] | 2
0% | -0.5 | 3 | O=C(NCC(c1cccnc1)N1CCN(c2ccccc2F)CC1)c1ccco1 (centres undefined) | -5 | -7% | -6
-16% | -0.6 | 13 | Cc1cc(C)cc(NC(=O)NCc2c(-c3ccccc3)noc2C)c1 | -10 | 22%[15.4 µM] | 5

Continued, starting with the last 6 of the part before.
gsp antagonist | D2 ag | Six1-Eya2 inh | molecule | D2 potentiator | gsp ag | CtBP-E1A blk
0% | -3.3 | 10 | O=C(CCc1n[nH]c(=O)[nH]c1=O)N1CCCCC1 | -7 | -6% | -2
-4% | -0.5 | -13 | Cc1onc(-c2c(F)cccc2Cl)c1C(=O)Nc1ccccc1N1CCOCC1 | -3 | -18%[15.4 µM] | -9
-10% | 2.7 | 8 | COc1cccc(C(=O)Nc2cccc3ccccc23)c1OC | 11 | 18% | 15
-9% | 0.1 | -6 | O=C(Cc1ccccc1)NNC(=O)Nc1ccc(Cl)c(Cl)c1 | -5 | 3%[15.4 µM] | 2
0% | -0.5 | 3 | O=C(NCC(c1cccnc1)N1CCN(c2ccccc2F)CC1)c1ccco1 (centres undefined) | -5 | -7% | -6
-16% | -0.6 | 13 | Cc1cc(C)cc(NC(=O)NCc2c(-c3ccccc3)noc2C)c1 | -10 | 22%[15.4 µM] | 5
? | -2.0 | -5 | C=CCN1C(=O)/C(=C\C(C)=C\c2ccccc2)SC1=S | 0 | 6% | -2
12% | 7.1 | 11 | O=C(O)c1ccc(Cn2cnc3cccnc32)cc1 | -2 | ? | 7
-1% | 0.8 | -1 | COc1ccc(NC2CCCN(C(=O)CCN3CCCC3=O)C2)cc1OC (centres undefined) | 26 | 9% | 10
-14% | 0.7 | 3 | COc1cc(C)nc(N2CCCC(C(=O)Nc3cc(Cl)ccc3OC)C2)n1 (centres undefined) | -1 | -1% | -8
-24% | 1.4 | -20 | COC(=O)C(Cc1cnc(Cl)s1)(C(=O)OC)c1ccc([N+](=O)[O-])cc1[N+](=O)[O-] | ? | -24% | -13
6% | 0.0 | 3 | CCc1ccc(-c2nnn(CCC#N)n2)cc1 | 2 | -23% | 10
-64% | -6.4 | 2 | CCOC(=O)CSc1nc2cc(C(=O)N3CCC(C(N)=O)CC3)ccc2c(=O)n1C1CCCCC1 | -15 | -3%[15.4 µM] | -10
7% | -2.2 | -1 | Cc1cc(C(=O)CCC(=O)N(C)CC(=O)Nc2c(Cl)cccc2Cl)c(C)s1 | -6 | 3%[15.4 µM] | 2
4% | 4.3 | 9 | Cc1cc(O)c(Sc2ccc(Cl)cc2)c(=O)[nH]1 | 6 | -40%[inhibitor] | 0
4% | -0.6 | 2 | COc1ccc(/C=C2/NC(=O)N(Cc3ccccc3F)C2=O)cc1OC | 4 | -29% | .
10% | -1.8 | 6 | Cc1ccc(C(=O)OCCN2CCN(c3ncc(C(F)(F)F)cc3Cl)CC2)cc1 | -44 | -1% | 4
-2% | -4.1 | 1 | CCCOc1ccc(NC(=O)C2CCCNC2=O)cc1 (centres undefined) | -9 | -10% | 5
. | -4.1 | -25 | Cc1cccc(C)c1-n1nnnc1C(c1ccccc1OC(F)(F)F)N1CCN(C/C=C/c2ccccc2)CC1 (centres undefined) | -16 | . | -19
-2% | -1.7 | -2 | O=C(COc1ccccc1Cl)NNC(=O)c1cc(S(=O)(=O)N2CCOCC2)ccc1N1CCCC1 | -27 | -8% | 4
-4% | 1.3 | -2 | Cn1c(=O)c2c(ncn2CC(=O)Nc2ccccc2Sc2ccccc2)n(C)c1=O | -6 | 5% | 8
4% | -6.2 | -13 | Cc1cccc(NC(=O)CSc2ccc(-c3ccco3)nn2)c1C | -1 | -3%[15.4 µM] | -24
-10% | -0.2 | 1 | Cc1cccc(C)c1OCC(=O)N(Cc1ccc(Cl)cc1)C1CCS(=O)(=O)C1 (centres undefined) | -1 | 2% | 5
2% | -3.9 | 2 | COc1ccc(NC(=O)CC2CC3CCC2C3)cn1 (centres undefined) | -3 | -34%[inhibitor] | -11
-10% | 1.3 | -1 | O=C1c2ccc(-c3ccc4c(c3)C(=O)N(CCCO)C4=O)cc2C(=O)N1CCCO | 1 | -1% | 7
11% | -1.5 | 9 | COc1ccc(C(CNC(=O)C(Cc2ccccc2)NC(N)=O)N(C)C)cc1 (centres undefined) | -6 | 7% | .
-2% | 0.2 | 1 | CC(C)(C)NC(=S)Nc1ccc(Br)cc1 | 0 | -20% | 6
-7% | -6.6 | -5 | CCc1cccc(CC)c1NC(=S)NCc1ccc2[nH]c(C)cc2c1 | -12 | -12% | -15
9% | -3.3 | -4 | Cc1cccc(OCC(=O)Nc2nnn(C)n2)c1C | 12 | -57%[inhibitor] | 5
4% | -5.5 | 1 | CCOC(=O)c1cn(Cc2cccc(C)c2)nn1 | -4 | 0%[15.4 µM] | -25
-11% | 1.8 | -10 | CCOc1ccc(Nc2n[nH]c(=S)s2)cc1 | 7 | 4% | -7

Four compounds from above, limited to gsp ag, D2 ag and Six1-Eya2 inh.
Structure,gsp ag,D2 ag,Six1-Eya2 inh
COc1ccc(/C=C2/NC(=O)N(Cc3ccccc3F)C2=O)cc1OC,-29%,-0.6,2
Cc1ccc(C(=O)OCCN2CCN(c3ncc(C(F)(F)F)cc3Cl)CC2)cc1,-1%,-1.8,6
CCCOc1ccc(NC(=O)C2CCCNC2=O)cc1 (centres undefined),-10%,-4.1,1
Cc1cccc(C)c1-n1nnnc1C(c1ccccc1OC(F)(F)F)N1CCN(C/C=C/c2ccccc2)CC1 (centres undefined),.,-4.1,-25

Additional entries.
gsp antagonist | D2 ag | Six1-Eya2 inh | molecule | D2 potentiator | gsp ag | CtBP-E1A blk
. | 4.7 | -3 | O=C(C[C@H]1C(=O)N(CCc2ccccc2)C[C@@H]1Cc1ccccc1)Nc1ccc(Br)cc1 | . | 8% | -3
13% | -5.1 | 8 | O=[N+]([O-])/C(C(Cl)=C(Cl)Cl)=C(/NC1CC1)Sc1ccccc1 | -8 | -5% | 6
-17% | -4.3 | -12 | COc1ccc(C(=O)N2CCN(c3cccc(Cl)c3)CC2)c(OC)c1 | -11 | -14% | -4
. | -4.3 | 7 | CC1(C(=O)NS(=O)(=O)c2ccc(C#N)cc2)CCN1C(=O)CC1CC1 (centres undefined) | -6 | . | 6
4% | -1.7 | -1 | NC(=O)c1cc2ccncc2c2ccccc12 | -21 | 12% | .
9% | -3.6 | 1 | Cc1cc(CN2CCC(N3CCC(C(=O)NC4CC4)CC3)CC2)cc(C)c1O | -11 | -32%[inhibitor] | -2
6% | 0.9 | -17 | NC(=S)N/N=C/c1cccc(/C=N/NC(N)=S)c1 | 4 | -16%[15.4 µM] | -14
-2% | 5.7 | 3 | NS(=O)(=O)c1ccc(NC(=O)c2cc(Cl)sc2Cl)cc1 | -13 | 12% | -18
? | -5.0 | -6 | CN(C)S(=O)(=O)c1cccc(-n2sc3ccccc3c2=O)c1 | -25 | -17% | -13

Part of the list above, reformatted:
gsp antagonist	D2 ag	Six1-Eya2 inh	D2 potentiator	gsp ag	CtBP-E1A blk	Molecule
0%	-0.1	5	-8	21%	.	COC(=O)C1=C[C@@H](C(=O)OC)[C@@H]2C3=C(C(=O)[C@]2(C)NC(=O)c2ccccc2)[C@H](C)n2c(=O)n(-c4ccccc4)c(=O)n2[C@@H]3C1
0%	-3.3	10	-7	-6%	-2	O=C(CCc1n[nH]c(=O)[nH]c1=O)N1CCCCC1
